UCH37 DUB inh – inhibitors of human deubiquitinating enzyme UCH37; purified proteasome/UCH37, Ub-AMC cleavage fluorescence; inhibition, % (no concentration beside the values); actives 0.33% (n = 330,000);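 active = mean of two replicates above 20%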;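 also: 0% = compound-free wells with enzyme and 100% = wells lacking proteasome; stock transfer was 100 nL into about 20 µL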
Target sequence (Q9Y5K5 whole entry, looked up): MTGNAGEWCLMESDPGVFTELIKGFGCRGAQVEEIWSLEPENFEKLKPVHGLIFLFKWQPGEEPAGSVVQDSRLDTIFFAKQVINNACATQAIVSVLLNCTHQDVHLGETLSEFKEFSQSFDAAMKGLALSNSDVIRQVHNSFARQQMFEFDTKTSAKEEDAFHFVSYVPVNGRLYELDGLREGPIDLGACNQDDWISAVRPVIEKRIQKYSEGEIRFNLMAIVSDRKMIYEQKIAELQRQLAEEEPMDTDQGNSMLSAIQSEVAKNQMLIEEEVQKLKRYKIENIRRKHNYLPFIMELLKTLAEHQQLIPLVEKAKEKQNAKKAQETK
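Material: human UCH37 enzyme supplied as purified proteasome complex. Measure: % inhibition of Ub-AMC cleavage fluorescence. Medium: pH 7.4 Tris-HCl (50 mM) with ovalbumin, ATP-MgCl2, DTT. Times: 30 min preincubation with enzyme, 25 min cleavage at room temperature. Detection: AMC fluorescence intensity at 355/460 nm.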
Calb FLC – C. albicans growth modulation with fluconazole. growth inhibition, % (concentration not given with the values). actives 0.57% (n = 300,000). C. albicans CaCi-2 (fluconazole-resistant clinical isolate) + fluconazole, Alamar Blue growth, 48 h;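 active = most replicates above 75%; inconclusive = exactly half above 75%; inactive = most below 75%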;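 also: all wells also contain fluconazole at 8 µg/ml as a sub-toxic cotreatment; 0% = median of DMSO wells and 100% = median of geldanamycin control wells; wells of about 8 µL received 7.5 nL stock; the first replicate is given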
Beta cell apopt – beta cell apoptosis inhibition; INS-1E cytokine-induced death, ATP luminescence, 48 h; percent of positive-control rescue, neutral wells zero; protection from apoptosis, % (test concentration not listed); actives 0.8% (n = 300,000); AID 435005;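 active = all replicates at 75% or more, or half of them and the mean; inconclusive = half reach 75% but not the mean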;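 also: 0% = cytokine-treated negative control wells and 100% = positive control rescue; higher means more ATP so stronger rescue from cytokine killing; wells of about 40 µL received 100 nL stock; the first replicate is given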
LANA-H2B inh – blocks KSHV LANA binding to histone H2A/H2B. Q9QR71. cell-free LANA-H2A/H2B peptide, fluorescence polarization. inhibition, % (test concentration not listed). actives 0.6% (n = 320,000). AID 2629; in the data active = inhibition mostly above about 10%, no sharp cut-off; inactive = mostly below about 6.7%;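 also: stock transfer was 7.5 nL into about 10 µL; 0% = median of vehicle wells and 100% = median of positive control wells; one replicate is shown; the record names a cut of 25% in any replicate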
A1 inh – inhibitors of the anti-apoptotic protein A1, read as caspase activation. actives 0.066% (n = 330,000). caspase activation, % (test concentration not listed). AID 2462. MEF A1-2A-BIM cells, Caspase-Glo 3/7 luminescence, 3 h; percent of clofoctol response, vehicle zero;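 active = over half of replicate activation scores above 10%, or exactly half above 10 with the replicate mean above 10; inconclusive = replicate mean below 10 yet half the replicates above 10; inactive = over half of replicates below 10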;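 also: wells of about 30 µL received 50 nL stock; many hits fall short of the cut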
RanGTP-Imp inh – inhibitors of RanGTP-importin-beta interaction, primary screen, biochemical, FRET, CFP-Ran, YFP-importin-beta, homogeneous; actives 1.1% (n = 300,000); cell-free CFP-Ran/YFP-importin-beta FRET ratio; AID 2216; inhibition, % (concentration not given with the values);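 active = most replicates above 15%; inconclusive = exactly half above 15%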;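 also: 0% = DMSO wells and 100% = Ran loaded with GDP instead of GTP; wells of about 40 µL received 100 nL stock; the first replicate is given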
T cruzi repl – blocks replication of Trypanosoma cruzi. T. cruzi beta-gal in NIH3T3, luminescence, 90 h. inhibition, % (no concentration beside the values). actives 1.4% (n = 300,000). AID 1885;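 active = mean inhibition across valid replicates above about 55%, limit read from the data; inconclusive = mean below that limit but half or more replicates reach it; inactive = mean below it, under half of replicates reach it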;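 also: signal also drops with host cell toxicity which is not excluded here; 0% = plate median of DMSO wells and 100% = zero luminescence signal; higher percent means less beta-gal luminescence so fewer parasites; stock transfer was 50 nL into about 50 µL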
B2AR ag – human beta-2 adrenergic receptor agonism by FAP; Am2.2-beta2AR cells, FAP receptor internalization, flow cytometry; reference of the scale not given here; response, % (test concentration not listed); actives 0.43% (n = 340,000);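 active = response above a set limit, near 3 SD of response in nonfluorescent compounds, cut at about 42% in these data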;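 also: stock transfer was 100 nL into about 11 µL; a reference agonist was the positive control; negative values mostly stem from fluorescent compounds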
Target sequence (P07550 whole entry, looked up): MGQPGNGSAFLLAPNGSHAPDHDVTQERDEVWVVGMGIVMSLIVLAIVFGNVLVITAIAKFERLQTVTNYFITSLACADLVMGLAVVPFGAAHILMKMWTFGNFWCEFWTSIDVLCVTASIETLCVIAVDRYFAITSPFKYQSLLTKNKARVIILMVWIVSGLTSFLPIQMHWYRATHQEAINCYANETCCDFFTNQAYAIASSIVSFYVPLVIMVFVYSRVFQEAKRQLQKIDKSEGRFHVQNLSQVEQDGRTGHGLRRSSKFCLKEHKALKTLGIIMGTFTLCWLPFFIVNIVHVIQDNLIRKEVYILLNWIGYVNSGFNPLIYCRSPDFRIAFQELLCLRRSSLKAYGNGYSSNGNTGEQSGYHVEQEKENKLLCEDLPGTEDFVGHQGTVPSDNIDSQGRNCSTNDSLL
* hit, by the source's call; ? = inconclusive; . = no result given.

SMILES	UCH37 DUB inh	Calb FLC	Beta cell apopt	LANA-H2B inh	A1 inh	RanGTP-Imp inh	T cruzi repl	B2AR ag
O=C1CC(c2ccsc2)c2ccc3ccccc3c2N1 (stereo not given)	4.5	0.2	-2.9	-1.5	-0.2	-2.6	15.5	-20.9
O=C1c2ccccc2S(=O)(=O)N1CC1CC(c2ccccc2Cl)=NO1 (stereo not given)	-1.2	?	-5.6	4.5	-0.9	2.4	12.6	-6.3
CS(=O)(=O)NN1C(=O)c2ccccc2NC1c1cccc(O)c1 (stereo not given)	-124.3	-17.6	4.0	3.8	-0.1	-0.7	-3.0	3.6
O=C1NCCC/C1=N/Nc1cc(F)ccc1F	.	-15.7	-8.4	-1.3	-1.9	7.5	23.2	2.4
O=C(C[C@@H]1C/C=C\C[C@@H](NC(=O)OCC2c3ccccc3-c3ccccc32)C(=O)OC[C@@H](Cc2ccccc2)NC1=O)NCCO	0.8	.	14.1	-0.8	-0.4	.	.	0.9
S=C(NCc1ccco1)NC1CCCc2ccccc21 (stereo not given)	1.2	7.6	-7.3	3.2	0.8	-0.6	-8.4	19.5
Cc1ccnc(NS(=O)(=O)c2ccc(NC(=O)Cc3ccc(Br)cc3)cc2)n1	-2.6	-4.8	-1.9	-7.0	-0.2	0.0	5.1	4.8
C=CCn1c(=O)c2ccccc2n2c(SCC(=O)c3ccccc3)nnc12	3.2	-1.8	3.9	-2.0	0.1	0.2	0.4	-9.0
COc1ccc(CCn2c(=N)c(C(=O)NC3CCCCC3)cc3c(=O)n4ccccc4nc32)cc1	.	-0.6	8.9	-4.5	0.2	19.2*	33.5	-7.1
COc1ccc([C@@H]2[C@@H]3C(=O)N(C(C)(C)C)C(=O)[C@@H]3[C@]3(Cc4ccccc4)C(=O)N(c4ccc(OC)cc4)C(=O)N23)cc1	0.7	8.1	-1.6	2.3	0.3	3.4	14.4	-11.4
CC(=O)Nc1ccc(S(=O)(=O)N2CCN(c3cc(C)nc4ncnn34)CC2)cc1	0.9	-2.2	-3.4	-2.7	0.7	6.0	-1.5	0.9
COc1ccc(C(=O)NCC2(N3CCCCC3)CCCCC2)cc1S(=O)(=O)N(C)C	3.7	-10.0	-3.5	-2.1	0.3	-2.5	20.6	-1.9
CCCC(c1nnnn1Cc1ccc(OC)cc1)N1CCN(c2ccccc2)CC1 (stereo not given)	5.3	-3.5	.	.	.	-0.9	10.7	-7.0
CCOC(=O)c1nc[nH]c1C	0.7	0.3	0.4	-4.5	0.3	10.3	-4.6	3.0
COc1ccc(C(c2c(O)cc(C)oc2=O)c2c(O)cc(C)oc2=O)cc1	7.1	-2.7	-2.8	-17.5	1.2	?	-4.4	1.1
CC12COC3(C(=O)Nc4ccccc4F)CC1CCC32C (stereo not given)	4.3	5.5	-1.7	4.6	-0.4	-4.4	-3.9	2.8
COc1ccc(NC(=O)C2CSC3c4ccccc4C(=O)N23)cc1 (stereo not given)	0.2	9.9	-6.1	-3.5	0.6	3.3	4.4	2.5
CCCOc1ccc(NC(=O)CC2C(=O)N(C)C(=S)N2Cc2cccs2)cc1 (stereo not given)	3.6	-4.7	-4.6	-5.0	-0.1	-2.5	23.6	14.3
O=C1CC(NS(=O)(=O)c2cccs2)CN1c1ccccc1 (stereo not given)	2.5	-5.8	1.3	3.7	0.1	2.7	-3.0	-0.1
COc1ccc(C(=O)NNC(=S)NC(=O)c2cccnc2)cc1	8.8	28.0	8.1	-2.8	0.5	-1.7	-10.4	-4.1
O=C(CSc1cnc2ccccc2n1)c1ccc(F)cc1	4.4	5.3	-1.7	2.3	-1.8	0.3	-10.9	-13.3
CC(C)c1c(C(=O)N/N=C/c2ccc3c(c2)OCO3)nnn1-c1nonc1N	.	.	4.7	0.2	-0.4	2.4	3.9	2.1
O=C(COC(=O)/C=C/c1ccc([N+](=O)[O-])cc1)NC1CCCCC1	3.2	.	-3.2	2.3	-1.0	.	.	4.1
COc1ccc(C(=O)COC(=O)[C@H](C)Nc2ccc(C(F)(F)F)cc2[N+](=O)[O-])c(OC)c1	0.2	?	-0.9	1.2	-1.2	-0.8	-18.0	7.1
CCc1c(C(=O)Nc2cc(C(=O)OC)ccc2C)csc1C	0.0	29.5	-2.5	2.3	-0.2	-2.3	11.9	9.9
COc1cccc(C2=NOC(C(=O)Nc3cc(C)nn3-c3ccccc3)C2)c1OC (stereo not given)	-0.1	-1.2	-3.3	4.4	-1.3	1.1	-21.0	-6.8
COc1cc(-c2cc(C(=O)Nc3ccc(N4CCOCC4)cc3)c3ccccc3n2)cc(OC)c1OC	-0.1	-8.6	14.1	1.9	0.8	-5.3	1.8	20.4
CCC(C)(C)C1CCc2[nH]nc(C(=O)NCc3ccc(Cl)cc3)c2C1 (stereo not given)	-1.0	.	0.7	0.9	1.5	.	.	0.2
CCOc1ccc(CN2CCN(C3CCSCC3)CC2CCO)cc1 (stereo not given)	3.4	0.1	-1.8	-1.6	-0.4	-0.1	18.1	0.8
COCCNCCCCOc1ccc(C)cc1[N+](=O)[O-]	2.8	24.7	-3.3	1.1	0.4	1.9	14.1	1.9
COc1ccccc1Nc1nc(C2(C)CCC(=O)O2)cs1 (stereo not given)	0.6	4.6	-2.4	-3.6	-0.1	4.5	2.9	2.6
c1ccc(Oc2nnc(-c3cccs3)c3ccccc23)cc1	5.1	16.3	4.7	-0.2	-0.6	0.5	-4.4	-18.3
CC(=O)n1cc([C@@H]2C=C(C(=O)N3CCN(C)CC3)O[C@H](OCc3ccc(CO)cc3)C2)c2ccccc21	3.2	1.8	-1.5	6.1	0.9	7.3	4.1	-1.8
CCOc1ccc(-n2nnnc2SCC(=O)NC2CCCC2)cc1	2.8	-8.8	-1.9	-1.6	0.6	2.4	-2.1	-5.0
O=C(NC1CCCCC1)C(c1ccncc1)N(Cc1ccc2c(c1)OCO2)C(=O)C(F)(F)F (stereo not given)	2.4	0.9	1.7	8.1	0.1	4.6	-6.2	12.2
CC(C)N1CCc2c(sc(NC(=O)Cc3ccccc3)c2C#N)C1	3.7	-0.7	-1.2	1.7	-0.9	155.7*	50.7	2.5
O=C(Nc1nnc(SCC(=O)N2CCOCC2)s1)c1ccccc1Cl	4.6	-3.0	2.8	-0.9	0.3	0.6	-6.1	3.8
CCC(C)C1C(C#N)=C(N)OC2=C1C(=O)CC(C)(C)C2 (stereo not given)	6.0	-3.9	.	-0.1	0.0	4.5	0.9	7.8
COc1ccc(CC2(CO)CCN(Cc3cnn(-c4ccccc4)c3)CC2)cc1	2.8	-4.6	0.4	5.2	0.1	0.1	35.3	1.1
O=C(CCNS(=O)(=O)c1ccc(Cl)cc1)N1CCCCCC1	2.5	15.8	-1.0	0.1	0.7	?	-5.1	-3.1
Cc1nnc(SCc2cccc([N+](=O)[O-])c2)o1	0.2	?	-0.9	-1.6	0.1	2.9	-5.3	-3.2
CC(C)c1ccc(C(=O)CSc2ncn[nH]2)cc1	3.6	6.2	-1.9	1.8	-1.1	-2.9	-4.5	-0.1
Cc1cccc(NS(=O)(=O)c2ccc3c(c2)NC(=O)CO3)c1C	1.4	-8.2	-4.8	6.6	-0.8	-0.2	2.3	10.2
C=CCN=C1CC(C)(C)CC(=O)/C1=C(\O)c1ccccc1	3.3	-0.2	3.8	0.9	-0.4	0.6	-8.6	-5.9
COc1ccc(Cc2noc(CN(C)Cc3cccc(-n4cccn4)c3)n2)cc1OC	-2.7	6.4	-7.5	7.8	0.2	2.6	12.8	-4.8
Cc1ccc(S(=O)(=O)N(CC(=O)c2ccc(Cl)cc2)C(=O)N2CCN(C)CC2)cc1	3.3	-7.6	-6.4	-0.2	-0.2	2.0	-2.2	-3.3
CN(C)c1ccc(N=c2sc3ccccc3n2C)cc1	3.4	-40.7	5.9	-1.4	-0.5	-1.8	31.0	-7.0
Fc1cccc(F)c1/C=C/c1ccc2ccccc2n1	-4.1	-3.6	5.8	-7.6	-5.4	4.3	7.0	-9.7
CC(=O)n1c(C=Nc2ccccc2)c(O)c2ccccc21	3.5	3.7	-1.3	6.6	-0.8	?	4.5	-22.2
COC(=O)c1ccc(NC(=S)NNC(=O)CC(C)C)cc1	2.5	-3.3	-0.8	4.5	-0.4	-3.2	-15.9	-7.8
CCCOC(=O)c1ccc(Oc2c(-c3ccc(OCC)cc3O)n[nH]c2C)cc1	4.4	-19.8	37.2	-1.1	-0.2	2.2	4.4	31.3
O=C1C(=O)c2ccc(-c3ccccc3)cc2-c2ccccc21	-87.8	34.2	97.9*	0.1	3.1	4.9	?	61.2*
O=C(CC1C(=O)NCCN1CC(c1ccccc1)c1ccccc1)NC1CC1 (stereo not given)	3.0	-0.4	-4.3	1.1	0.5	2.6	-11.4	7.1
CN1CCN(C(=S)NC(=O)c2ccccc2Cl)CC1	0.1	-8.2	-3.4	-1.5	0.5	1.3	-4.5	-0.1
CCc1ccccc1NC(=O)CN1CCN(C(=O)C2CCN(C(=O)/C=C/c3ccccc3)CC2)CC1	2.1	.	4.0	-0.7	0.1	.	.	-0.2
NS(=O)(=O)c1ccc(NC(=O)COC(=O)CN2C(=O)C3CC=CCC3C2=O)cc1 (stereo not given)	2.6	.	-1.6	-0.9	0.2	.	.	-17.2
Cc1ccc(N(CC(O)CN2CCOCC2)S(=O)(=O)c2ccc3ccccc3c2)cc1 (stereo not given)	6.1	-4.0	-6.8	0.1	0.9	0.9	-12.1	-8.2
Cc1ccccc1OCCC(=O)OCC(=O)N(C)c1c(N)n(Cc2ccccc2)c(=O)[nH]c1=O	3.1	0.6	1.6	-1.5	0.1	?	-6.6	-12.8
NS(=O)(=O)c1ccc(CNC(=O)NC2(c3ccccc3)CC2)cc1	5.3	4.6	-3.3	-2.7	0.6	0.6	-7.9	2.6
O=C(NCCC1CC1(Cl)Cl)Nc1ccccc1 (stereo not given)	3.8	0.9	0.5	-0.6	0.0	1.6	0.5	-2.5

Going on with the list.
SMILES	UCH37 DUB inh	Calb FLC	Beta cell apopt	LANA-H2B inh	A1 inh	RanGTP-Imp inh	T cruzi repl	B2AR ag
CCOC(=O)c1c(NC(=O)COC(=O)Cc2n[nH]c(=O)c3ccccc23)sc(C(=O)NC)c1C	1.2	.	2.9	0.3	0.3	.	.	5.9
CCCCCCNc1cc(C)oc(=O)c1C(C)=O	4.4	0.8	-1.0	-2.1	-0.1	3.2	14.7	-7.0
CN=c1scc(-c2cccs2)n1/N=C/c1ccc(O)c(O)c1O	.	64.4	27.7	7.9	-6.2	?	-19.4	105.7*
O=C(NCCc1ccccc1)c1cc(=O)c2ccccc2o1	3.1	-4.2	4.5	-6.8	0.1	-1.3	-3.3	-4.1
Cn1c(CSc2ncccn2)nnc1SCC(=O)N1CCCCC1	0.7	5.7	-4.6	-0.7	1.5	4.1	-11.2	0.3
CCOC(=O)/C=C1/N(C)c2ccccc2C1(C)C	6.4	-7.1	-2.5	-0.2	1.4	2.7	-6.8	1.1
COc1ccccc1C(=O)Nc1ccccc1C(=O)Nc1ccccc1	1.4	-1.6	.	-2.0	-0.2	3.3	0.1	5.2
COc1ccc(NC(=O)CCC(=O)c2cccs2)cc1Cl	4.6	-1.9	3.8	2.6	0.3	-1.2	7.1	-0.8
COc1cc2c(cc1OC)C1=NC(=O)CN1C(SCc1ccccc1C)=N2	-67.6	27.7	.	0.2	-0.6	-4.0	-14.6	4.8
CCN(CC(=O)NCc1ccc(F)cc1)Cc1nc2cc(Cl)ccc2c(=O)[nH]1	-0.5	.	0.5	3.4	0.5	.	.	6.6
